VACV mCherry inh: qHTS for Stage-Specific Inhibitors of Vaccinia Orthopoxvirus: mCherry Reporter Primary qHTS; hit rate 0.63% among 310,000; Vaccinia virus mCherry reporter infection, fluorescence; about a quarter of the inactives have no number; Potency, µM (top dose mostly 36.5 µM), for the others: at the top dose activity change, negative = inhibition, most hits filed as inhibitors; active = well fitted inhibition curve with a large enough effect; inconclusive = small, poorly fitted or top-dose-only effect; inactive = no such curve, though single readings can be large or run the other way; tested in A549 cells; note: nearly all actives have a fitted effect of over 35% in size; inactives centre near -10
Vaccinia Venus: qHTS for Stage-Specific Inhibitors of Vaccinia Orthopoxvirus: Venus Reporter Primary qHTS; Vaccinia virus Venus reporter expression, fluorescence; Potency, µM (titrated, usually from 36.5 µM), for inactives: at the top dose activity change, negative = inhibition, usual class: inhibitors; hit rate 0.46% among 330,000; active means well fitted inhibition curve with a large enough effect; inconclusive means small, poorly fitted or top-dose-only effect; inactive means no such curve, though single readings can be large or run the other way; tested in A549 cells; note: nearly all actives have a fitted effect of over 30% in size; inactives centre near -10
An asterisk follows results filed as active; i = inactive; ? = inconclusive; . = not tested or not shown; & = joins results of further samples; [ ] = dose if it differs, or a comment. % is set by controls: 0 for no effect and ±100 for the full control effect; potency is the fitted concentration of half-maximal effect. Outcome played no part in choosing rows. Share with any hit: about 0.88%.

SMILES | VACV mCherry inh | Vaccinia Venus
COc1cccc(C2=CC(c3ccccc3F)n3ncc(C(=O)Nc4ccc(C)cc4)c3N2)c1 (configuration not stated) | ? | -15%
CN1CCN2c3ncccc3Cc3ccccc3[C@@H]2C1 | i | -16%
COC(=O)c1ccccc1NC(=O)C1CCN(C(=O)N2CC(C)Oc3ccccc32)CC1 (configuration not stated) | -9% | -10%
COc1cccc(/C=C2\Oc3cc(OCC(=O)N4CCC[C@H]4C(=O)O)ccc3C2=O)c1 | -6% | -1%
O=C(COC(=O)c1ccccc1NCc1ccco1)Nc1ccc2c(c1)OCO2 | . | ?
Cc1ccc(/C=N/NC(=O)Cc2cccn2C)cc1 | i | -9%
CCc1cc(=O)oc2cc(OC(C)C(=O)NCc3ccccn3)ccc12 (configuration not stated) | -6% | -4%
CCn1c2ccccc2c2cc(CN3CCN(Cc4ccc(OC)c(OC)c4)CC3)ccc21 | -11% | ?
CCc1ccc(-c2nn(CC(=O)NC3CCCCC3)c3c2cnc2ccc(C)cc23)cc1 | 2% | 19%
Cc1cccc(S(=O)(=O)c2c(N)n(/N=C/c3cccnc3)c3nc4ccccc4nc23)c1 | -14% | -14%
O=C(Nc1cccc2ccccc12)c1csc([C@@H]2C[C@H](O)[C@@H](CO)O2)n1 | 15% | 0%
Cc1ccc(NC(=O)C2CCC(CNS(=O)(=O)c3ccc4c(c3)C(C)(C)C(=O)N4C)CC2)cc1 (configuration not stated) | i | -25%
Cc1cccc(N2CCN(CC(O)COc3ccc4ccccc4c3)CC2)c1 (configuration not stated) | i | -9%
CCc1csc(CCNC(=O)C2CCC(=O)N(CCc3cccc(F)c3)C2)n1 (configuration not stated) | i | -18%
CC(/C=C/c1ccco1)=N/NC(=O)c1ccc(C)nc1 | -16% | -17%
CCOc1c(CNc2nnnn2C)cccc1OC | -17% | -8%
O=C(NCCc1ccccc1)C(=O)c1c(-c2ccccc2)cc2ccccn12 | -13% | -5%
CCn1c(CC(=O)Nc2ccccc2F)nnc1SCC(=O)NC1CCCC1 | -8% | 4%
CC(c1ccccc1)C1C(C#N)=C(N)OC2=C1C(=O)CCC2 (configuration not stated) | . | -12%
CC1(C)C2CC=C(/C=N/NC(=S)NCCc3ccccc3)C1C2 (configuration not stated) | -25% | -17%
COc1ccc(NC(=O)CN(C)C(=O)c2cc(-c3ccco3)nc3ccccc23)cc1 | -13% | 0%
Cc1ccc(C)n1NC(=O)c1ccc([N+](=O)[O-])cc1 | 5% | -5%
Cc1nnc(SCCCOc2ccccc2)nc1C | -33% | -20%
CCC(CC)C(=O)N(C)c1c(C)nc2c(OCc3ccc(C#N)cc3)cccn12 | 20% | 1%
CN1CCN(S(=O)(=O)c2cccc(C(=O)Oc3cccc(Br)c3)c2)CC1 | -17% | -8%

Reprinted from the part before: 2 compounds, then new ones.
SMILES | VACV mCherry inh | Vaccinia Venus
CCC(CC)C(=O)N(C)c1c(C)nc2c(OCc3ccc(C#N)cc3)cccn12 | 20% | 1%
CN1CCN(S(=O)(=O)c2cccc(C(=O)Oc3cccc(Br)c3)c2)CC1 | -17% | -8%
O=C(N/N=C/C=C/c1ccccc1)c1cccnc1 | -12% | -5%
Cc1nccc2[nH]c(=O)c(C(=O)NC3CCCCC3C)cc12 (configuration not stated) | . | -2%
CCCc1ccc(C(O)c2ncc(-c3ccccc3F)[nH]2)cc1 (configuration not stated) | 3% | -2%
CCN1CCN(c2ccc(NC(=O)c3ccc(C#N)cc3F)cc2Cl)CC1 | -23% | -13%
Cc1ccc(Cl)cc1NC(=O)Cn1c(=O)oc2cc(S(=O)(=O)N3CCCCCC3)ccc21 | ? | ?
O=C(c1cc([N+](=O)[O-])ccc1N1CCCCC1)N1CCCCC1 | -15% | -4%
COc1ccc(C2C(C#N)=C(N)OC3=C2C(=O)CC(C)(C)C3)cc1OC (configuration not stated) | -6% | -2%
O=C1CC(c2cccc(Cl)c2)Cc2nc(N3CCN(c4ccccc4)CC3)ncc21 (configuration not stated) | . | -8%
CCCn1c(N)c(N(CCOC)C(=O)c2ccc([N+](=O)[O-])c(C)c2)c(=O)[nH]c1=O | i | -13%
COc1ccccc1NC(=O)c1oc2ccccc2c1NC(=O)c1cc(OC)c(OC)c(OC)c1 | ? | -28%
Cc1nn(C)c(Cl)c1/C=N/OC(=O)c1ccccc1 | i | -5%
Cc1c(Br)c([N+](=O)[O-])nn1CC(=O)NCCc1c[nH]c2ccccc12 | -13% | -21%
Cc1nn(-c2ccccc2)c(C)c1C(=O)OCC(=O)Nc1ccc(C(N)=O)cc1 | -2% | -10%
CCOc1cc(C(=S)N2CCOCC2)ccc1OC(=O)/C=C/c1ccc(OC)c(OC)c1 | i | -6%
CCn1c(SC)nnc1-c1c[nH]c2ccccc12 | ? | 1%
COc1ccccc1OCC(=O)Nc1sc2c(c1C(=O)NCC1CCCO1)CCC2 (configuration not stated) | -16% | -9%
Cc1cc(C(=O)CN2C(=O)C(=O)N(CC(C)C)C2=O)c(C)n1C1CC1 | -14% | 2%
Cc1cccc(CC(=O)N2CCC(n3nccc3NC(=O)C3CC3)CC2)c1 | -3% | -18%
CCN(CC(=O)Nc1ccc(NC(C)=O)cc1)C(=O)/C=C/c1cn(Cc2ccccc2)nc1-c1cccnc1 | i | -4%
Cc1cc(C)n(C(=O)CNc2ccccc2Cl)n1 | . | -12%
Cc1cccc(NC(=S)NC(NC(=O)c2ccco2)C(Cl)(Cl)Cl)c1 (configuration not stated) | ? | ?
CC(C)C[C@@H](C(=O)O)N(Cc1cccc(CN([C@@H](CC(C)C)C(=O)O)S(C)(=O)=O)c1)S(C)(=O)=O | i | 0%
Cc1cccc(/C=N/NC(=O)CNc2cccc3ccccc23)n1 | -7% | -19%
COCCCN1C(=O)C(=O)/C(=C(/O)c2ccc(OC(C)C)c(C)c2)C1c1ccncc1 (configuration not stated) | 15% | 12%
CC(C)(C)NS(=O)(=O)NC(=O)C1=C(N2CCCC2)COC1=O | i | -6%
New compounds follow:
SMILES | VACV mCherry inh | Vaccinia Venus
COc1ccccc1NS(=O)(=O)c1cccc(NC(=O)C2CC(=O)N(Cc3ccccc3)C2)c1 (configuration not stated) | -23% | -26%
CC(C)CCNC(=O)c1ccc2c(Cl)c3c(nc2c1)CCC3 | ? | -28%
O=C(NNC1=NS(=O)(=O)c2ccccc21)c1ccccc1Cl | 1% | -19%
COCCNC(=O)C1c2cc(OC)c(OC)cc2C(=O)N(C)C1c1cccnc1 (configuration not stated) | -11% | -6%
O=C(NCc1ccncc1)c1ccccc1Nc1ccc(SC(F)F)cc1 | -9% | -15%
CCOc1ccc(NC(=O)CN(C)C(=O)c2cc(-c3ccc(OC)cc3)nc3ccccc23)cc1OCC | ? | ?
C#CCOCCOCCOCCNc1nc(N2CCN(C(=O)[C@H](CCCN=C(N)N)n3cc(C(N)[C@@H](C)CC)nn3)CC2)nc(N2CCN(C(=O)[C@H](CCCCN)n3cc([C@@H](N)[C@H](C)CC)nn3)CC2)n1 (some centres not stated) | i | -4%
COc1ccc(CC(=O)Nc2nc3c(s2)CC(C)CC3)cc1 (configuration not stated) | -17% | -6%
Cc1ccc(N2CC(NC(=O)C3CCCC3)CC2=O)cc1C (configuration not stated) | 1%[7.34 µM] | -10%[7.34 µM]
CCCNC(=O)Cn1cnc2sc(C(=O)NCCN(CC)CC)c(C)c2c1=O | . | -25%
CCOC(=O)c1cc(-c2cc3ccccc3o2)nc2c1c(=O)[nH]c(=O)n2CCOC | . | 0%
O=[N+]([O-])c1cc(S(=O)(=O)N2CCCC2)ccc1NCCc1ccccc1 | i | -4%
O=C(O)C1CCCCC1C(=O)Nc1ccc(Cl)cc1Cl (configuration not stated) | -14% | -5%
Nc1c(Cl)cc(Cl)cc1C(=O)OCC(=O)N1CCCC1 | -13% | 1%
O=C(COC(=O)c1ccncc1)Nc1ccc2c(c1)OCO2 | -9% | -4%
O=C(c1ccc2c(c1)N(Cc1cccc(Cl)c1)C(=O)c1ccccc1S2(=O)=O)N1CCCCC1 | -14% | -12%
CC(Sc1nnc(Cc2cccs2)n1C1CC1)C(=O)NC1CCS(=O)(=O)C1 (configuration not stated) | i | -15%
CCCCn1c(N)c(N(CC(C)C)C(=O)C2CC(=O)N(c3ccc(C)cc3)C2)c(=O)[nH]c1=O (configuration not stated) | -13% | -1%
CCN(CC)C(=O)Cn1c(=O)n(-c2ccc(C)c(C)c2)c(=O)c2c3c(sc21)CCCCC3 | -5% | -8%
CCOC(=O)NC1(NCc2ccccc2)Oc2ccccc2O1 | -21% | -20%
COc1ccc(N(CC(=O)N/N=C/c2ccccc2F)S(=O)(=O)c2ccccc2)cc1 | -18% | -15%
COC(=O)c1ccc(S(N)(=O)=O)o1 | i | -9%
COc1ccc(N2CC(C(=O)N3CCC4(CC3)CC(=O)c3ccccc3O4)CC2=O)cc1 (configuration not stated) | -23% | -8%
Cc1ccc(S(=O)(=O)NCCn2cnc([N+](=O)[O-])n2)cc1 | -6% | -8%
CCc1ccc(NC(=O)CCn2c(=O)c3cccn3c3ccccc32)cc1 | -9%&-14% | -11%&-18%

Laid out differently: results already given
CCOc1ccc(NC(=O)CN(C)C(=O)c2cc(-c3ccc(OC)cc3)nc3ccccc23)cc1OCC
  VACV mCherry inh = ?
  Vaccinia Venus = ?
COc1ccc(N(CC(=O)N/N=C/c2ccccc2F)S(=O)(=O)c2ccccc2)cc1
  VACV mCherry inh = -18%
  Vaccinia Venus = -15%
CCCCn1c(N)c(N(CC(C)C)C(=O)C2CC(=O)N(c3ccc(C)cc3)C2)c(=O)[nH]c1=O (configuration not stated)
  VACV mCherry inh = -13%
  Vaccinia Venus = -1%

An excerpt from above in order of length of the SMILES, low to high.
SMILES | VACV mCherry inh | Vaccinia Venus
CCc1cc(=O)oc2cc(OC(C)C(=O)NCc3ccccn3)ccc12 (configuration not stated) | -6% | -4%
Cc1nn(-c2ccccc2)c(C)c1C(=O)OCC(=O)Nc1ccc(C(N)=O)cc1 | -2% | -10%
CCCCn1c(N)c(N(CC(C)C)C(=O)C2CC(=O)N(c3ccc(C)cc3)C2)c(=O)[nH]c1=O (configuration not stated) | -13% | -1%

Continuation.
SMILES | VACV mCherry inh | Vaccinia Venus
Cc1ccc(NC(=O)C(=O)NNC(=O)c2ccccc2C)cc1Cl | -11% | -10%
CCOc1ccc(CCNC(=O)c2nnn(CC(=O)Nc3ccccc3C)c2N)cc1OCC | i | -13%
CCOc1ccc2oc(C(=O)OC(C(=O)NC(N)=O)C(C)C)c(C)c2c1 (configuration not stated) | -13% | -4%
O=C(CCCOc1ccccc1)NCCc1ccccc1 | 8% | 7%
CCCC(=O)Nc1ccc(NC(=O)c2ccco2)c(OC)c1 | -12% | -19%
COc1cc(/C=N/NC(=O)c2ccc(Cl)c(S(N)(=O)=O)c2)ccc1OCC(N)=O | i | -6%
CCOc1ccc(NC(=O)N2CCC(c3nc4ccccc4[nH]3)CC2)cc1 | 0% | 1%
CCN(CC(=O)NCc1ccc(Cl)cc1)C(=O)c1ccc(S(=O)(=O)NCc2ccco2)cc1 | -12% | -15%
Cc1ccc(S(=O)(=O)N2CCOCC2)cc1C(=O)OCC(=O)NC1CCS(=O)(=O)C1 (configuration not stated) | -12% | -17%
C=CCOc1ccccc1CN1CCC(Oc2cc(C(=O)NC3CC3)ccc2OC)CC1 | i | -7%
N#CC(C(=O)c1ccco1)c1ccccn1 (configuration not stated) | -29% | -15%
O=S(=O)(Nc1ccc(S(=O)(=O)Nc2nccs2)cc1)c1ccc(Br)cc1 | i | -2%
COC(=O)/C(=C/Nc1ccccc1)[N+](=O)[O-] | i | -9%
Cc1ccc2c(c1)c1c3n2CCN(C(=O)c2cccc(C(F)(F)F)c2)C3CCC1 (configuration not stated) | -6% | -13%
Cc1ccc(C)c(NC(=O)CN(C)C(C)C(=O)N2CC(C)CC(C)C2)c1 (configuration not stated) | -12% | -18%
Cc1cnccc1CN(C)Cc1cn(C)nc1-c1cccc(Cl)c1 | -10% | -15%
CC(C)CNC(=O)CCc1c[nH]c2ccccc12 | . | -9%
O=C(O)CSc1nnc2n(-c3ccccc3)c(=O)c3ccccc3n12 | i | -4%
O=C(Oc1cccc2c(O)cccc12)c1ccccc1 | -24% | ?
COc1ccc(Cl)cc1NC(=O)CN(C)CC(=O)Nc1ccccc1-c1ccccc1 | -21% | -28%
CN(C)c1cccc(C(=O)NCc2ccccc2Cl)c1 | -16% | -11%
CC1CCCCC1NC(=O)C1CCN(S(=O)(=O)c2cccc3nsnc23)CC1 (configuration not stated) | -10% | -7%
CC(O)C1CCC2C3CC[C@H]4CC(O)CCC4(C)C3CC3(OCCO3)C12C (some centres not stated) | -22% | -17%
O=C(/C=C/c1ccc(OCCCF)cc1)NCc1ccc(Cl)cc1 | -11% | -11%
COc1ccc(N2CCN(S(=O)(=O)CCNC(=O)CCCc3ccccc3)CC2)cc1 | -22% | 1%
O=C(NC(=S)NC1CCCc2ccccc21)c1ccco1 (configuration not stated) | i | 1%
CCN(CC)S(=O)(=O)c1ccc(N2CCCCC2)c(NC(=O)C2=COCCO2)c1 | -20% | ?

Given field by field: part of the list above
smiles: CC(C)(C)NS(=O)(=O)NC(=O)C1=C(N2CCCC2)COC1=O
- VACV mCherry inh: i
- Vaccinia Venus: -6%

smiles: COc1ccccc1NS(=O)(=O)c1cccc(NC(=O)C2CC(=O)N(Cc3ccccc3)C2)c1 (configuration not stated)
- VACV mCherry inh: -23%
- Vaccinia Venus: -26%

smiles: CC(C)CCNC(=O)c1ccc2c(Cl)c3c(nc2c1)CCC3
- VACV mCherry inh: ?
- Vaccinia Venus: -28%

smiles: O=C(NNC1=NS(=O)(=O)c2ccccc21)c1ccccc1Cl
- VACV mCherry inh: 1%
- Vaccinia Venus: -19%
